VACV Venus inh – inhibitors of vaccinia virus (Venus reporter). Vaccinia virus Venus reporter expression, fluorescence. Potency, µM (doses to about 36.5 µM), inactives show at the top dose activity change, negative = inhibition, most hits filed as inhibitors. 330,000 tested, 0.46% active; active means well fitted inhibition curve with a large enough effect; inconclusive means small, poorly fitted or top-dose-only effect; inactive means no such curve, though single readings can be large or run the other way; tested in A549 cells; also: nearly all actives have a fitted effect of over 30% in size; inactives centre near -10
Vaccinia mCherry – vaccinia inhibition (mCherry reporter); Vaccinia virus mCherry reporter infection, fluorescence; about a quarter of the inactives have no number; Potency, µM (doses to about 36.5 µM), for inactives: top-dose activity change, negative = inhibition, most hits filed as inhibitors; 310,000 tested, 0.63% active; active = well fitted inhibition curve with a large enough effect; inconclusive = small, poorly fitted or top-dose-only effect; inactive = no such curve, though single readings can be large or run the other way; tested in A549 cells; also: nearly all actives have a fitted effect of over 35% in size; inactives centre near -10
The depositor's hits bear a star; i = inactive; ? = inconclusive; nt = not tested or not shown; [ ] = dose if it differs, or a comment. % is scaled to controls: 0 for no effect and ±100 for the full control effect; potency is read from the fitted curve at half-maximal effect.

SMILES	VACV Venus inh	Vaccinia mCherry
CCOc1ccccc1N1CCN(C(=O)NC(C)c2ccc(F)c(F)c2)CC1 (configuration not stated)	-1%	?
COC(=O)c1ccc(Nc2ccc3nonc3c2[N+](=O)[O-])cc1	-3%	-5%
CCOC(=O)c1ccc(NC(=O)CCc2c(C)nc3ncnn3c2C)cc1	-6%	4%
C/C(=N\NC(=O)CCc1c[nH]c2ccccc12)c1ccc([N+](=O)[O-])cc1	-2%	?
CC(=O)c1ccc(N2CCN(CC(=O)Nc3cc(C)on3)CC2)cc1	-6%	-7%
CCCCCNC1=CC(=O)CC(c2ccccc2)C1 (configuration not stated)	?	nt
Cc1nn(CC(=O)NCc2ccco2)c(=O)c2nn(-c3ccccc3)c(C)c12	-3%	-5%
O=C(O)c1sccc1Oc1ccc(F)cc1[N+](=O)[O-]	-6%	-2%
Cc1ccc2c(c1)C(=O)N1[C@H]3c4ccccc4OC[C@@H]3[C@H](c3ccccc3)[C@]1(C)C(=O)N2	?	-11%
Cc1ccc(NC(=O)CSc2nnc3n2CCCCC3)cc1S(=O)(=O)N1CCOCC1	-21%	-26%
CC1Cc2cc(/C(O)=C3/C(=O)C(=O)N(CCN4CCOCC4)C3c3cccc(Cl)c3)ccc2O1 (configuration not stated)	-10%	i
O=C1CN(c2ccc(Br)cc2)C(=O)N1CC(=O)N1CCCc2ccccc21	-10%	i
O=C(NCC(c1ccco1)N1CCc2ccccc2C1)c1ccccc1 (configuration not stated)	-12%	i
O=C(C(c1ccccc1)c1ccccc1)N1CCCc2ccccc21	-9%	i
CCN(CC)S(=O)(=O)c1cccc(NC2=NCC(C)S2)c1 (configuration not stated)	-5%	-9%
CN(C)CCCNC1=CC(=O)CC(c2ccccc2)C1 (configuration not stated)	1%	-3%
C=CCn1c(=O)c2c(nc(Br)n2Cc2ccccc2Cl)n(C)c1=O	-29%	?
Cc1cc(C)c(OCC(=O)N(Cc2ccc(N(C)C)cc2)C2CCS(=O)(=O)C2)c(C)c1 (configuration not stated)	-23%	?
COc1cc(OC)c2c(c1)OC(=O)CC2c1cc(OC)c(OC)c(OC)c1 (configuration not stated)	-12%	i
O=C(CN(CC1CCCO1)S(=O)(=O)c1ccc(S(=O)(=O)NC2CC2)cc1)Nc1ccccc1 (configuration not stated)	?	nt
Cc1ccc(C(=O)NC(=S)Nc2ccc(S(=O)(=O)N3CCN(C)CC3)cc2)cc1	-17%	-17%
CN(C(=O)CSc1nnc(-c2ccccc2)c(-c2ccccc2)n1)C1CCS(=O)(=O)C1 (configuration not stated)	-8%	-19%
O=C1NC(=S)NC(=O)C12C(c1ccc(F)cc1)NC(=S)NC2c1ccc(F)cc1 (configuration not stated)	13%	3%
N#Cc1ccc(-c2nc3ccc(Cl)cn3c2Cc2cccc(F)c2)cc1	-11%	i
CCCCCCCNC(=O)C1(CC2CC(c3ccc(Cl)cc3)=NO2)CCN(C(=O)CCCCCBr)CC1 (configuration not stated)	?	-3%
SMILES	VACV Venus inh	Vaccinia mCherry
O=C(O)c1ccccc1-n1cnnn1	-2%	-3%
Cc1ccc(S(=O)(=O)NC(=O)Nc2cccc(S(=O)(=O)N(C)C)c2)cc1	-6%	-12%
C=C[C@@H]1c2cccc(C)c2N(S(=O)(=O)c2ccc(C)cc2)[C@H](c2ccc(OC(C)=O)cc2)C1(C#N)C#N	-19%	-11%
Cc1oc(C)c2c(=O)cc(-c3ccc4c(c3)OCO4)cc(OC(=O)c3cccc(Cl)c3)c12	5%	-6%
O=C(C[C@H]1C/C=C\C[C@@H](NC(=O)OCC2c3ccccc3-c3ccccc32)C(=O)O[C@@H](c2ccccc2)CNC1=O)N[C@H](CO)Cc1ccccc1	?	?
O=C1CCN(C(=O)Cc2ccccc2[N+](=O)[O-])CC1	-6%	i
Cc1nc2sc(C(c3cccc(F)c3)N3CCCCC3)c(O)n2n1 (configuration not stated)	-7%	-15%
O=C(NCc1ccc(N2CCCC2=O)cc1)Nc1cccc(Cl)c1	-21%	-5%
CCc1ccc(-n2c(=O)c3ccccc3n(CC(=O)NCCc3ccc(OC)c(OC)c3)c2=O)cc1	-2%	-2%
O=C(O)c1cccc(C(=O)O)c1	0%	-8%
Fc1ccc(C2=Nn3c(nnc3-c3ccco3)SC2)cc1	-5%[7.34 µM]	-3%[7.34 µM]
Cc1cc(C)c(S(=O)(=O)Nc2ccccc2-c2ccccc2)c(C)c1	-18%	-12%
O=C(Nc1cc2c(cc1Cl)OCCCO2)c1ccco1	-13%	i
O=C(O)c1ccc(/C=N/N2CCN(Cc3ccccc3)CC2)cc1	6%	i
Cc1cccc(Cn2c(SCc3ccc(C(=O)NCc4ccccc4)cc3)nc3cccnc32)c1	-7%	-10%
N#CCCN1CCN(C(=O)c2c(N)no[n+]2[O-])CC1	4%	7%
Cc1[nH]c2ccccc2c1C(=O)C(=O)NCc1nnnn1-c1ccc(F)cc1	-4%	i
CCCCC(=O)Nc1nc2ccc3nc(C)sc3c2s1	-21%	-11%
O=C(NCCC1=CCCCC1)C1CCN(S(=O)(=O)c2cccc3nonc23)CC1	-24%	nt
COc1ccc(N2CC(NC(=O)NCC(C)C)CC2=O)cc1 (configuration not stated)	4%	-13%
Cc1ccc(N=C/C(C(=O)C(F)(F)F)=C(\O)c2ccco2)cc1Cl	-9%	i
S=C(NCc1ccccc1)Nc1nccs1	-16%	-7%
Cc1occc1-c1nnc(SCC(=O)NC2CCCC2)n1C	-12%	-16%
O=S(=O)(/N=C(/Nc1ccc(Cl)cc1Cl)c1ccccc1)c1cccs1	-10%	i
CCc1ccc(CNC(=O)CCCn2nc(C)n3ccnc3c2=O)cc1	-2%	i

One compound at a time, from the list above. Order of values: VACV Venus inh	Vaccinia mCherry
`Cc1nc2sc(C(c3cccc(F)c3)N3CCCCC3)c(O)n2n1` (configuration not stated) in the list: -7%	-15%
`O=C(NCc1ccc(N2CCCC2=O)cc1)Nc1cccc(Cl)c1` in the list: -21%	-5%
`Cc1oc(C)c2c(=O)cc(-c3ccc4c(c3)OCO4)cc(OC(=O)c3cccc(Cl)c3)c12` in the list: 5%	-6%
`Cc1ccc(S(=O)(=O)NC(=O)Nc2cccc(S(=O)(=O)N(C)C)c2)cc1` in the list: -6%	-12%
`O=C(O)c1cccc(C(=O)O)c1` in the list: 0%	-8%

Additional results follow.
SMILES	VACV Venus inh	Vaccinia mCherry
COc1ccc(OC)c(/C=N/NC(=O)c2cccc3ccccc23)c1	-8%[7.34 µM]	i[7.34 µM]
O=C(NCc1ccccn1)c1ccc(Cl)c(S(=O)(=O)Nc2ccccc2C(=O)NCc2ccccn2)c1	-17%	-9%
COc1cc(/C=C2\C(=O)ON=C2c2ccc(Cl)cc2)ccc1O	-13%	i
Cc1cc(C)n2nc(C(=O)OCC(=O)N3CC(C)CC(C)C3)nc2n1 (configuration not stated)	-4%	-14%
Cc1onc(-c2ccccc2Cl)c1C(=O)N1CCCCC1C (configuration not stated)	12%	-12%
Cc1ccc(OCc2nc(-c3cccnc3)no2)cc1C	-8%	-17%
CC(=O)CCc1ccc(OCC(O)CNC2CCCc3ccccc32)cc1 (configuration not stated)	-15%	-16%
O=C(Cn1ncc2c3ccccc3n(Cc3cccc(Cl)c3)c2c1=O)Nc1ccc(F)cc1F	-22%	-22%
CCCOc1ccc(/C=C/C(=O)NC2CCCCC2)cc1	-16%	-1%
Cc1c(OCC(=O)NCCCN2CCOCC2)ccc2c3c(c(=O)oc12)CCCC3	-17%	-15%
CCCCn1c(N)c(N(CC(C)C)C(=O)COc2cc(C)ccc2Cl)c(=O)[nH]c1=O	-10%	-5%
CCCCn1c(=O)c2oc3ccccc3c2n(CC(=O)Nc2cccc(Cl)c2C)c1=O	-25%	?
O=C(NCc1cccs1)c1csc([C@H]2C[C@H](O)[C@@H](CO)O2)n1	2%	10%
S=C(NN=Cc1ccc2c(c1)OCO2)NN=Cc1ccc2c(c1)OCO2	-2%	?
CC1=C(C(=O)OCc2ccc3c(c2)OCO3)C(c2ccc(F)cc2)NC(=O)N1 (configuration not stated)	?	?
Cc1ccc(NC(=O)c2ccc(Cl)c(N3C(=O)C=CC3=O)c2)cc1	?	nt
Cc1cc(C(=O)NCC2CCC3(CCN(Cc4cccc(F)c4F)CC3)O2)n(C)n1 (configuration not stated)	-23%	-3%
O=C(O)c1ccc(Nc2cc(Cl)c3nonc3c2[N+](=O)[O-])cc1	-3%	-2%
CCN(CC)c1ccc(/C=N/NC(=O)Cc2ccc(OC)c(OC)c2)cc1	0%	i
Cc1ccc(-c2nnc(Nc3ccc4c(c3)OCO4)c3ccccc23)cc1S(N)(=O)=O	-18%	?
CC(=O)c1cccc(NC(=O)c2c(F)c(F)c(F)c(F)c2F)c1	10µM*	nt
C/C=C\C=C/C(=O)Nc1cccc(C2=NOC3(C2)C[C@H](C(N)=O)N(C(=O)Cc2ccc([N+](=O)[O-])cc2)C3)c1 (some centres not stated)	-5%	i
COC(=O)CC(N)c1ccc(Br)cc1 (configuration not stated)	-7%	i
O=C(N1CCOCC1)N1CCCN(C(=O)N2CCOCC2)CC1	-22%	nt
O=C(CNC(=O)/C(=C/c1ccccc1)NC(=O)c1ccc(Br)cc1)OCc1ccccc1	-8%	?
SMILES	VACV Venus inh	Vaccinia mCherry
S=C(NCCN1CCOCC1)Nc1cccc2ccccc12	-15%	i
O=C(O)CCCC(=O)N1CC(=O)Nc2ccccc21	-4%	nt
O=C(CSCc1c(F)cccc1Cl)NNC(=S)NC1CCCCC1	-11%	-13%
CCC1CCCCN1C(=O)c1ccc(OC)c(OC2CCN(C(C)C)CC2)c1 (configuration not stated)	-15%	0%
Cc1cccc(-c2cc3nc(C)c(C)c(NCCCn4ccnc4)n3n2)c1	?	-27%
O=C(CNS(=O)(=O)c1c(Cl)cccc1Cl)OCC(=O)N1CCN(c2ccccc2)CC1	-2%	-13%
COc1ccc(CCN)cc1	-15%	-2%
COc1cccc(N2CC(NS(=O)(=O)c3cccnc3)CC2=O)c1 (configuration not stated)	-13%	-13%
Cn1ccnc1-c1nc2ccccc2[nH]c1=O	-6%	i
O=C(COC(=O)CSCC(=O)N1CCCCC1)NCc1ccc(F)cc1	3%	-8%
CCOc1ccc(N/C(N)=N/c2nc(C)c(C)c(=O)[nH]2)cc1	2%	-2%
CC1=CCC[C@H]2[C@H](C1)C(=O)C[C@@H](C)[C@]2(C)CC/C(=C/CO)CO	-9%	-9%
C=CCNC(=O)c1onc(CSc2ccccc2CC)c1C(=O)O	-1%	-17%
CCc1ccc(C2c3c(-c4ccccc4)n[nH]c3C(=O)N2c2ccc(C(=O)O)cc2)cc1 (configuration not stated)	-1%	3%
Clc1ccc(Nc2cc(-c3ccccc3)nc3ncnn23)cc1	-10%	i
COc1ccc(OC)c(NC(=O)c2c(NCc3cccs3)sc3c2CCCC3)c1	-2%[7.34 µM]	-4%[7.34 µM]
Cc1noc(NS(=O)(=O)c2ccc(NC(=O)CSc3nc4ccccc4[nH]3)cc2)c1C	-12%	-22%
COc1ccc(C(=O)OCC(=O)N2c3ccccc3CC2C)cc1S(=O)(=O)N1CCOCC1 (configuration not stated)	-9%	i
COc1ccccc1C(=O)NCCC(=O)N1CC=C(c2ccccc2)CC1	-21%	-18%
Cc1ccc(CN(Cc2cc3cccc(C)c3[nH]c2=O)C(=O)N(C)C)cc1	-25%	-21%
COc1ccc(N2CCN(C3CC(=O)N(c4ccc5c(c4)OCCO5)C3=O)CC2)cc1 (configuration not stated)	-18%	-2%
S=C1NCCOCCNC(=S)NCCOCCOCCOCCN1	-17%	-1%
CCOC(=O)[C@]12Cc3cc(OC)ccc3[C@H]1N(C)C(=O)c1cc(OC)ccc12	-25%	?
Cc1[nH][nH]c(=O)c1C(c1ccc(O)c([N+](=O)[O-])c1)c1c(C)[nH][nH]c1=O	-13%	i
O=C(/C=C/c1cccs1)N1CCCCC1	-6%	-18%
O=C(CCc1ccncc1)N1CCCC(Nc2ccc(F)cc2)C1 (configuration not stated)	-11%	-14%
CCN(CC)CCOc1ccc(/C(=C(\Cl)c2ccccc2)c2ccccc2)cc1	?	?

4 compounds picked at random from the list so far:
SMILES	VACV Venus inh	Vaccinia mCherry
Cc1cccc(-c2cc3nc(C)c(C)c(NCCCn4ccnc4)n3n2)c1	?	-27%
COc1ccccc1C(=O)NCCC(=O)N1CC=C(c2ccccc2)CC1	-21%	-18%
CCC1CCCCN1C(=O)c1ccc(OC)c(OC2CCN(C(C)C)CC2)c1 (configuration not stated)	-15%	0%
C=CCNC(=O)c1onc(CSc2ccccc2CC)c1C(=O)O	-1%	-17%
